# Screening data: PubChem BioAssay, National Center for Advancing Translational Sciences (NCATS)
# gsp antagonist: antagonizes gsp, the McCune-Albright syndrome mutation. gsp-mutant cells, cAMP HTRF, 30 min; control for the full effect not named in the record. Potency, µM (top dose mostly 76.9 µM), inactives show at the highest dose activity change, negative = inhibition, hits mostly inhibitors. hit rate 0.4% among 340,000. AID 624288; active = falling curve of any shape with a large fitted effect; inconclusive = falling curve, mostly with a smaller effect; inactive = flat or rising curve; cell line not stated here;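 note: intracellular cAMP measured with PDE inhibitor Ro 20-1724 present during compound exposure; potency is the fitted concentration of half-maximal effect; % is set by controls: 0 for no effect and ±100 for the full control effect; nearly all actives have a fitted effect of over 65% in size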
#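 HTRF cAMP read-out (cAMP-d2 plus anti-cAMP antibody-K in lysis buffer, 30 min RT). Before lysis, cells are exposed to compounds with […] for 30 min at 37C in DPBS containing Ca/Mg, BSA and Tween 20.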
# D2 ag: agonists of human D2 dopamine receptor (beta-arrestin). P14416. DiscoveRx PathHunter D2 beta-arrestin, luminescence, 90 min; 100% = 57 uM dopamine signal. activation, % (test concentration not listed). hit rate 0.084% among 360,000; in the data active = activation above about 40%; inconclusive = about 15% to 40%; inactive = below about 15%; note: compound concentration not given in the record; the text of the record calls up to 30% inactive
# Target sequence (P14416 whole entry, looked up): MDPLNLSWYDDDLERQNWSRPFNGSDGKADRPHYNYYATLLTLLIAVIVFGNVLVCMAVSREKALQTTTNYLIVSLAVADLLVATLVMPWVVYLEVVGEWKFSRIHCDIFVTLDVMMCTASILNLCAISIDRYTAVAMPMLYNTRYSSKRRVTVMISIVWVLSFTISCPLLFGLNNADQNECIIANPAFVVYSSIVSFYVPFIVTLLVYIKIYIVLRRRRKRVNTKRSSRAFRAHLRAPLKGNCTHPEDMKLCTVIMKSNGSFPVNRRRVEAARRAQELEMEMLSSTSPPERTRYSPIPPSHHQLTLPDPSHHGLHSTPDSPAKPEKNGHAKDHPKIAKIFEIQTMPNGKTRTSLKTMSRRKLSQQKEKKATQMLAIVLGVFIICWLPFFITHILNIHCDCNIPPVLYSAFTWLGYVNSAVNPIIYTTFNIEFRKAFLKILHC
#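 Agonist mode: compounds alone added to overnight-plated D2 PathHunter cells for 90 min at 37 C, with 57 uM final dopamine (EC100) defining full response. Beta-arrestin recruitment detected by chemiluminescent reagent, read after 1 h at ambient temperature.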
# CtBP-E1A inh: inhibitors of CtBP/E1A interaction; AlphaScreen GST-E1A/His-CtBP binding, 1536-well; active compounds read low; control for the full effect not named in the record; activity change, % (no concentration beside the values); hit rate 0.49% among 340,000; AID 651724; in the data active means activity change below about -65%; inconclusive means about -30% to -65%; inactive means above about -30%; note: % is set by controls: 0 for no effect and ±100 for the full control effect
#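 In 5 uL wells, 23 nL compound meets equimolar GST-E1A and His-CtBP (5X stock 125 nM each) for 2 h, 37 °C. Beads (5X, 50 ug/mL) then 1 h, 37 °C, dark.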
# D2 potentiator: positive allosteric modulators of human D2 dopamine receptor | P14416 | DiscoveRx D2 beta-arrestin cells, luminescence, 90 min; 100% = 57 uM dopamine signal | potentiation, % (test concentration not listed) | hit rate 0.23% among 360,000 | AID 624464; active = potentiation of 50% or more; inconclusive = 30% to 50%; inactive = 30% or less;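 note: compound concentration not given in the record; tested on top of an EC20 dose of dopamine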
#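 D2 cells co-treated with compound plus 50 nM dopamine (EC20) for 90 min at 37 deg C to detect potentiation. Beta-arrestin recruitment was read as enzyme-fragment luminescence after 1 h at ambient temperature. Full response was set by 57 uM dopamine.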
# Six1-Eya2 blk: blocks human Six1 binding to Eya2 | Q15475+O00167 | activity change, % (test concentration not listed) | hit rate 0.56% among 360,000 | AlphaScreen GST-Six1/His-Eya2 binding, biochemical; active compounds read low; control for the full effect not named in the record; in the data active = activity change below about -65%; inconclusive = about -30% to -65%; inactive = above about -30%; note: % is set by controls: 0 for no effect and ±100 for the full control effect
#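 GST-Six1 + His-Eya2 (5X stock: 250/500 nM); Tris pH 8.0, 300 mM NaCl, 0.05% BSA, 0.02% Tween 20; GSH donor/Ni acceptor beads; 1 h 37 °C dark; AlphaScreen readout.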
# gsp agonist: agonists of gsp mutant (McCune-Albright syndrome). hit rate 0.13% among 340,000. Potency, µM (doses to about 76.9 µM), for inactives: top-dose activation (cAMP increase), most hits filed as activators. gsp mutant cells, cAMP HTRF, 30 min; control for the full effect not named in the record. AID 624287; active = well fitted activation curve with a large enough effect; inconclusive = small, poorly fitted or top-dose-only effect, or another doubt; inactive = no such curve, though single readings can be large or run the other way; cell line not stated here;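 note: phosphodiesterase inhibitor Ro 20-1724 added with compounds to block cAMP breakdown; potency is the fitted concentration of half-maximal effect; nearly all actives have a fitted effect of over 60% in size; about a fifth of the inactives were tested at one dose only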
#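 Cells in DMEM/10% FBS with G418 were pretreated with compounds in DMSO plus […] (300 uM stock) for 30 min at 37C. cAMP was measured by HTRF (cAMP-d2 plus anti-cAMP antibody-K) after 30 min at room temperature.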
# Active calls of the source: *; ? = inconclusive; · = no result given; [ ] = another dose, or the depositor's remark. Compounds were not picked by outcome; 1.4% or so of the library scored in one or more.
# Each structure is followed by: Six1-Eya2 blk, gsp antagonist, gsp agonist, D2 ag, D2 potentiator, CtBP-E1A inh
[1] O=C(CCN1C(=O)/C(=C/c2ccc(Cl)cc2)SC1=S)Nc1ccc(C(=O)O)cc1
    6, 10%, -4%[15.4 µM], -3.9, -4, -5
[2] O=C(CN1CCN(Cc2ccccc2F)C1=O)NCCc1ccc(Cl)cc1
    -2, -7%, -22%, -1.2, -11, 5
[3] Nc1nonc1C(=O)NCCNS(=O)(=O)c1ccc(F)cc1
    8, -15%, -42%[inhibitor], 1.5, 0, -3
[4] Cn1c(C(=O)OCC(=O)NCc2ccco2)cc2sccc21
    -9, 11%, 13%, -2.3, -2, -4
[5] COc1ccc2cc3c(N)c(C(=O)N4CCCC4)sc3nc2c1
    -9, -16%, -29%, -2.6, -1, 3
[6] CC(CNS(=O)(=O)c1ccccc1)(c1ccccc1)N1CCCCC1 (stereo not drawn)
    0, 12%, 9%, -6.0, -15, ·
[7] Cc1ccccc1NC(=O)CNc1ccccc1C(=O)NCc1ccco1
    0, -4%, 14%, -1.2, -15, -2
[8] C=C(C)CSc1nc(N)c2c(C)c(C)sc2n1
    -6, 0%, 6%, -2.6, -9, -11
[9] CN(C)/C=C/C(=O)c1ccc(S(=O)(=O)c2ccccc2)cc1
    -7, -4%, -2%[15.4 µM], -0.2, -3, ·
[10] CC(C)C1COC(c2cccc3ccccc23)=N1 (stereo not drawn)
    14, -4%, ·, -2.3, -6, 12
[11] COc1ccc(S(=O)(=O)NC2CC2)cc1C(=O)N1CCOCC1
    -3, 7%, -8%[15.4 µM], 0.9, -3, ·
[12] Cc1cccc(N2C(=O)CC(Sc3ncn[nH]3)C2=O)c1 (stereo not drawn)
    6, 5%, -3%, -1.0, -3, 2
[13] COc1cc(CNC2CCCCCCC2)ccc1OCC(N)=O
    -4, 5%, -2%, 3.2, -4, ·
[14] O=C(c1cccc([N+](=O)[O-])c1)N1CCCC(C(=O)N2CCN(c3ccccc3)CC2)C1 (stereo not drawn)
    -5, -1%, 3%, -1.8, 29, 10
[15] C[C@@H]1CN([C@@H](C)CO)C(=O)CCCn2nncc2CO[C@@H]1CN(C)S(=O)(=O)c1ccc2ccccc2c1
    14, ·, -52%[inhibitor], -0.7, -2, 0

# Overlap with the part before: seven compounds, followed by the next part.
# Each structure is followed by: Six1-Eya2 blk, gsp antagonist, gsp agonist, D2 ag, D2 potentiator, CtBP-E1A inh
[9] CN(C)/C=C/C(=O)c1ccc(S(=O)(=O)c2ccccc2)cc1
    -7, -4%, -2%[15.4 µM], -0.2, -3, ·
[10] CC(C)C1COC(c2cccc3ccccc23)=N1 (stereo not drawn)
    14, -4%, ·, -2.3, -6, 12
[11] COc1ccc(S(=O)(=O)NC2CC2)cc1C(=O)N1CCOCC1
    -3, 7%, -8%[15.4 µM], 0.9, -3, ·
[12] Cc1cccc(N2C(=O)CC(Sc3ncn[nH]3)C2=O)c1 (stereo not drawn)
    6, 5%, -3%, -1.0, -3, 2
[13] COc1cc(CNC2CCCCCCC2)ccc1OCC(N)=O
    -4, 5%, -2%, 3.2, -4, ·
[14] O=C(c1cccc([N+](=O)[O-])c1)N1CCCC(C(=O)N2CCN(c3ccccc3)CC2)C1 (stereo not drawn)
    -5, -1%, 3%, -1.8, 29, 10
[15] C[C@@H]1CN([C@@H](C)CO)C(=O)CCCn2nncc2CO[C@@H]1CN(C)S(=O)(=O)c1ccc2ccccc2c1
    14, ·, -52%[inhibitor], -0.7, -2, 0
[16] COc1ccc(Cc2nnc(SCC(=O)NC3CCCCC3)n2C)cc1
    0, 4%, -44%[inhibitor], -2.7, -12, 6
[17] C[C@@H]1CN([C@@H](C)CO)C(=O)CCCn2nncc2CO[C@H]1CN(C)C(=O)c1ccncc1
    0, ·, -25%, -1.7, 2, 0
[18] O=C(Nc1ccccc1N1CCOCC1)c1ccccc1[N+](=O)[O-]
    -2, 12%, -9%, -3.8, -4, -3
[19] O=C(c1cc(Cl)cc(Cl)c1)N1CCN(c2cc(C(F)(F)F)nc3ccccc23)CC1
    -5, -12%, ?, -4.8, -1, ·
[20] CCc1ccc2[nH]cc(S(=O)(=O)c3ccc(C)c(C)c3)c(=O)c2c1
    -11, ?, -2%, 2.5, 0, 6
[21] C=C(C)c1cccc(C(C)(C)NC(=O)Nc2ncccn2)c1
    -3, -37%, -3%, 2.0, -6, -9
[22] COc1ccc(CCNC(=O)c2cc(-c3cc(C)ccc3O)n[nH]2)cc1OC
    0, 1%, 1%, -5.1, 5, 4
[23] O=C(C=C1CCN(c2ncc(C(F)(F)F)cc2Cl)CC1)NNC(=O)Nc1ccc(Cl)cc1
    -1, 12%, -46%[inhibitor], -2.7, -2, 6
[24] O=[N+]([O-])c1ccc(NCCNS(=O)(=O)c2ccccc2)c(C(F)(F)F)c1
    -21, -2%, -15%, -3.6, -15, -23
[25] CCN(C(=O)COC(=O)c1ccc2c(c1)OCO2)c1ccccc1
    -3, 3%, 10%[15.4 µM], -3.1, -24, -2
[26] COc1ccc(-n2c(N)c(C(=O)NCc3ccco3)c3nc4ccccc4nc32)c(OC)c1
    -8, -13%, 7%, -2.5, -5, 2
[27] O=C(Nc1ccccc1)Nc1ccc(C(=O)N2CCCC2)cc1
    0, -12%, 3%, 13, 13, 0
[28] CSc1ccc(CN(C)Cc2cc(=O)oc3c(C)c(C)ccc23)cc1
    -6, -15%, ?, 11, -8, -4
[29] Cc1ccc(C(=O)N/N=C/c2ccc(-c3cccc(Cl)c3)o2)cn1
    -27, -25%, 5%[15.4 µM], -1.7, -10, -1
[30] CCCN1C(=O)SC(CC(=O)Nc2ccccc2)C1=O (stereo not drawn)
    3, 16%, -27%, -1.1, -3, 1

# 6 of these compounds in another layout.
no.	structure	Six1-Eya2 blk	gsp antagonist	gsp agonist	D2 ag	D2 potentiator	CtBP-E1A inh
24	O=[N+]([O-])c1ccc(NCCNS(=O)(=O)c2ccccc2)c(C(F)(F)F)c1	-21	-2%	-15%	-3.6	-15	-23
25	CCN(C(=O)COC(=O)c1ccc2c(c1)OCO2)c1ccccc1	-3	3%	10%[15.4 µM]	-3.1	-24	-2
26	COc1ccc(-n2c(N)c(C(=O)NCc3ccco3)c3nc4ccccc4nc32)c(OC)c1	-8	-13%	7%	-2.5	-5	2
27	O=C(Nc1ccccc1)Nc1ccc(C(=O)N2CCCC2)cc1	0	-12%	3%	13	13	0
28	CSc1ccc(CN(C)Cc2cc(=O)oc3c(C)c(C)ccc23)cc1	-6	-15%	?	11	-8	-4
29	Cc1ccc(C(=O)N/N=C/c2ccc(-c3cccc(Cl)c3)o2)cn1	-27	-25%	5%[15.4 µM]	-1.7	-10	-1

# Later entries.
# Each structure is followed by: Six1-Eya2 blk, gsp antagonist, gsp agonist, D2 ag, D2 potentiator, CtBP-E1A inh
[31] Cc1ccc2ncc(S(=O)(=O)c3ccccc3)c(N3CCCCC3C)c2c1 (stereo not drawn)
    2, ?, 13%, 5.6, 0, 4
[32] COc1ccc(-c2c(C)oc3c(CN4CCOCC4)c(O)ccc3c2=O)cc1
    19, -11%, 23%, 3.4, -2, 0
[33] CSc1cccc(NC(=O)c2cccc3cccnc23)c1
    -9, ?, 8%, 7.1, -7, -6
[34] COc1ccc(Oc2ccccc2/C=N/O)cc1
    7, 3%, 24%, 2.1, -17, -3
[35] COc1cc(C2C(C#N)=C(C)NC3=C2C(=O)CC(C)(C)C3)cc(OC)c1O (stereo not drawn)
    11, -1%, -13%, 0.8, -2, 2
[36] CN(CC(=O)NC1CCCc2ccccc21)C1CCCCC1 (stereo not drawn)
    0, ·, 3%[15.4 µM], -2.4, -21, -18
[37] Cc1nnc(-c2ccc(Cl)cc2)nc1NCCN(C)C
    6, 12%, 0%[15.4 µM], -3.5, -12, -2
[38] COc1ccccc1C(=O)NNC1=C(C(=O)C(F)(F)F)CCC1
    -6, -7%, -5%, -9.6, -52, 6
[39] COc1ccc(CNC(=O)COc2cc3c(c4oc(=O)cc(C)c24)CCC(C)(C)O3)cc1
    2, -1%, ·, 1.9, -7, -9
[40] Cc1ccccc1S(=O)(=O)N1[C@@H](c2ccc(F)cc2)C(C(=O)O)=CC[C@H]1c1ccc(Cl)cc1
    7, -10%, ·, -0.9, -7, 4
[41] Oc1nc(Nc2ccc(F)cc2)sc1/C=C1\C=Nc2ccccc21
    -10, -26%, 12%[15.4 µM], -0.4, -17, -9
[42] CCOC(=O)c1cnc2c(-c3ccc(Cl)cc3)cnn2c1C
    1, -9%, -5%[15.4 µM], -3.5, -4, 17
[43] Cc1cc(NCc2ccccn2)n2c(nc3ccccc32)c1C#N
    -24, -12%, 0%, 0.4, 0, -20
[44] Cc1ccc(C)c(-n2ccnc2SCC(=O)O)c1
    3, -3%, -16%, -6.0, 0, 4
[45] COc1ccc(N2CC(C(=O)Nc3cc(C)on3)CC2=O)cc1 (stereo not drawn)
    2, 0%, -20%, -1.5, -2, 8
[46] COc1ccccc1OCC(=O)Nn1c(=S)[nH]c2ncccc2c1=O
    -1, -17%, ?, -5.4, 9, -3
[47] CCc1cc(=O)oc2c(C)c(O)c(CN(C)C)cc12
    0, 17%, ?, -2.8, -14, 5
[48] CC(=O)Nc1nc(N(C)C)nc(N(C)C)n1
    -2, 13%, 9%[15.4 µM], -3.0, -3, 6
[49] COc1ccc(S(=O)(=O)N2CCN(C)CC2c2ccccc2)cc1 (stereo not drawn)
    -1, 10%, 27%, 4.4, -1, 6
[50] COc1ccc(/C=N/NC(=O)c2ccoc2C)cc1CN1CCN(c2ccc(F)cc2)CC1
    -18, -17%, -11%, -7.1, -5, ·
[51] O=C(O)Cc1c(O)ccc2ccccc12
    -1, 3%, -39%[inhibitor], -5.5, 19, 5
[52] O=C(Nc1nc(-c2ccccc2)cs1)c1ccccc1F
    9, -5%, -20%, -3.3, -5, 14
[53] NC(=O)COC(=O)c1ccc(-c2ccccc2)cc1
    0, 3%, 20%, -0.2, -8, 3
[54] O=C(c1ccc(NC2=NC3CS(=O)(=O)CC3S2)cc1)N1CCN(c2ccc(F)cc2)CC1 (stereo not drawn)
    1, -3%, ?, -5.8, -6, 0
